High-throughput results from PubChem.
Yeast UUG start = modulators of yeast start codon fidelity, primary screen, whole organism, S. cerevisiae, single point, plate reader; S. cerevisiae UUG-firefly luciferase reporter, luminescence/redox ratio; AID 602363, 2012; 0.13% of 350,000 active; activity score, % at 18.7 µM;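 active = replicate mean at a twofold rise or more, about +100% in these data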;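 note: firefly luciferase made from a UUG start codon reports start codon fidelity; reporter light over untreated wells divided by growth signal over untreated wells; some hits fall short of that in this replicate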
HIV Env fusion = inhibitors of HIV-1 Env-driven cell-cell fusion, primary screen, HeLa-JRFL effector, CEM21 target cells, luciferase. inhibition, % at 12.3 µM. 1.1% of 360,000 active. AID 651610, 2012;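 active = mean replicate inhibition score of at least 50 and every replicate individually at or above 50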;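 note: 0% = plate neutral controls and 100% = maraviroc near 300 nM; one replicate is shown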
Starred values were filed as active, the others as inactive; [ ] = another dose, or the depositor's remark.

SMILES	Yeast UUG start	HIV Env fusion
COc1cccc(-c2ccc3c(c2)O[C@@H](CN(C)Cc2ccncc2)[C@@H](C)CN([C@@H](C)CO)S3(=O)=O)c1	4	6[16.7 µM]
COc1ccc(NC(=O)N(C)C[C@H]2Oc3c(NC(=O)c4ccc(-c5nccs5)cc4)cccc3C(=O)N([C@H](C)CO)C[C@@H]2C)cc1	6	2[16.7 µM]
C[C@H]1CN([C@@H](C)CO)C(=O)c2cc(NC(=O)Nc3ccc(F)cc3)ccc2O[C@H]1CN(C)Cc1ccc(-c2ccccc2)cc1	9	18[16.7 µM]
Cc1noc(C)c1NC(=O)N(C)C[C@@H]1Oc2c(NS(=O)(=O)c3ccccc3)cccc2C(=O)N([C@@H](C)CO)C[C@H]1C	-13	0[16.7 µM]
C[C@@H]1CN([C@@H](C)CO)C(=O)c2cccc(NC(=O)C3CC3)c2O[C@H]1CN(C)C(=O)Nc1ccccc1	-13	10[16.7 µM]
C[C@H](CO)N1C[C@H](C)[C@H](CN(C)CC2CC2)Oc2cc(-c3cncnc3)ccc2S1(=O)=O	-8	-7[16.7 µM]
CC(C)NC(=O)Nc1ccc2c(c1)C(=O)N(C)[C@@H]1CC[C@H](CC(=O)NC3CCCCC3)O[C@@H]1CO2	22	-7[16.7 µM]
C[C@@H]1CN([C@H](C)CO)C(=O)c2cc(NC(=O)Cc3ccccc3)ccc2O[C@@H](C)CCCCO[C@@H]1CN(C)C(=O)c1ccccc1	9	-16[16.7 µM]
CO[C@H]1CN(C)C(=O)c2cc(NC(=O)Cc3ccccc3)ccc2OC[C@@H](C)N(C)C[C@@H]1C	8	4[16.7 µM]
O=C(CCN1CCCCC1)N[C@@H]1CC[C@H](CCNS(=O)(=O)c2ccc(F)cc2)O[C@@H]1CO	-2	17[16.7 µM]
C[C@@H]1CN([C@H](C)CO)C(=O)Cc2cc(NC(=O)Nc3ccc4c(c3)OCO4)ccc2O[C@@H]1CN(C)S(=O)(=O)c1ccc(Cl)cc1	-8	-3[16.7 µM]
CC(C)CC#Cc1ccc2c(c1)O[C@H](CN(C)C(=O)c1cccc(F)c1)[C@@H](C)CN([C@@H](C)CO)S2(=O)=O	-8	12[16.7 µM]
Cc1noc(C)c1NC(=O)Nc1ccc2c(c1)C(=O)N([C@@H](C)CO)C[C@H](C)[C@@H](CN(C)Cc1ccccc1)O2	11	-12[16.7 µM]
O=C(C[C@H]1CC[C@@H](NC(=O)CCN2CCCCC2)[C@@H](CO)O1)NCc1ccc(Cl)c(Cl)c1	1	-11[16.7 µM]
COc1ccc(S(=O)(=O)N[C@@H]2C=C[C@@H](CC(=O)N3CCc4ccccc4C3)O[C@H]2CO)cc1	-17	-1[16.7 µM]
C[C@@H]1CN([C@@H](C)CO)C(=O)c2cccc(NC(=O)c3ccc(-c4nccs4)cc3)c2O[C@@H]1CN(C)S(=O)(=O)c1ccccc1	13	-24[16.7 µM]
CC(C)c1cn(CC[C@@H]2CC[C@@H](NS(=O)(=O)c3ccccc3)[C@@H](CO)O2)nn1	-17	-10[16.7 µM]
O=S(=O)(N[C@H]1CC[C@@H](CCn2cc(-c3cccc(F)c3)nn2)O[C@@H]1CO)c1ccccc1	0	10[16.7 µM]
O=C(Cc1ccncc1)NCC[C@@H]1CC[C@H](NC(=O)C2CC2)[C@@H](CO)O1	-10	20[16.7 µM]
C[C@@H]1CN([C@@H](C)CO)C(=O)Cc2cc(NC(=O)C3CCCCC3)ccc2O[C@@H]1CN(C)CC1CCCCC1	14	-9[16.7 µM]
C[C@H](CO)N1C[C@H](C)[C@@H](CN(C)C(=O)CCCN(C)C)OCCCC[C@H](C)Oc2ccc(NC(=O)Nc3ccc(F)cc3)cc2C1=O	-21	12[16.7 µM]
CCC(=O)Nc1ccc2c(c1)C(=O)N(C)C[C@H](OC)[C@H](C)CN(C(=O)c1ccncc1)[C@H](C)CO2	-16	-8[16.7 µM]
C/C=C/c1ccc2c(c1)O[C@@H](CN(C)C(=O)Nc1cc(F)ccc1F)[C@H](C)CN([C@H](C)CO)S2(=O)=O	0	10[16.7 µM]
Cc1ccc(S(=O)(=O)N(C)C[C@H]2Oc3c(NC(=O)c4ccc(-c5nccs5)cc4)cccc3C(=O)N([C@@H](C)CO)C[C@@H]2C)cc1	-3	-16[16.7 µM]
CCCNC(=O)C[C@H]1CC[C@H]2[C@H](COc3ccc(NC(=O)Nc4ccccc4)cc3C(=O)N2C)O1	6	10[16.7 µM]
C[C@@H]1CN([C@H](C)CO)C(=O)c2cc(NS(C)(=O)=O)ccc2O[C@@H]1CN(C)S(=O)(=O)c1ccccc1	-3	18[16.7 µM]
Cc1ccc(S(=O)(=O)Nc2ccc3c(c2)C(=O)N([C@H](C)CO)C[C@@H](C)[C@@H](CN(C)C(=O)NC2CCCCC2)OCCCC[C@@H](C)O3)cc1	22	-44[16.7 µM]
CN(C)CC(=O)N[C@@H]1CC[C@H](CCNC(=O)C2CCCC2)O[C@H]1CO	0	4[16.7 µM]
COc1ccc(S(=O)(=O)N(C)C[C@@H]2OCCCC[C@@H](C)Oc3ccc(NS(=O)(=O)c4c(C)noc4C)cc3C(=O)N([C@H](C)CO)C[C@@H]2C)cc1	12	-15[16.7 µM]
C/C=C/c1ccc2c(c1)O[C@H](CN(C)C(=O)c1ccc3c(c1)OCO3)[C@H](C)CN([C@H](C)CO)S2(=O)=O	8	25[16.7 µM]
CCC(=O)N(C)C[C@@H]1Oc2ncc(/C=C/c3ccccc3)cc2C(=O)N([C@H](C)CO)C[C@H]1C	16	-8[16.7 µM]
COc1ccc(NC(=O)N(C)C[C@@H]2Oc3ncc(C#Cc4cccc(F)c4)cc3C(=O)N([C@H](C)CO)C[C@@H]2C)cc1	6	23[16.7 µM]
CCC(=O)N[C@H]1C=C[C@@H](CC(=O)NCc2cc(F)cc(F)c2)O[C@H]1CO	12	-6[16.7 µM]
CN1CCN(C(=O)C[C@H]2C=C[C@@H](NC(=O)c3ccc4c(c3)OCO4)[C@H](CO)O2)CC1	-21	12[16.7 µM]
CO[C@H]1CN(C)C(=O)c2cc(NC(C)=O)ccc2OC[C@H](C)N(Cc2cncnc2)C[C@@H]1C	-4	8[16.7 µM]
CC(C)NC(=O)N(C)C[C@H]1Oc2ccc(NS(=O)(=O)c3cn(C)cn3)cc2CC(=O)N([C@H](C)CO)C[C@@H]1C	-1	0[16.7 µM]
Cc1noc(C)c1NC(=O)N(C)C[C@@H]1Oc2ccc(NC(=O)NC(C)C)cc2CC(=O)N([C@H](C)CO)C[C@@H]1C	13	11[16.7 µM]
C[C@@H]1CN([C@@H](C)CO)C(=O)c2cc(N(C)C)ccc2O[C@H]1CN(C)C(=O)Nc1cccc2ccccc12	-2	-10[16.7 µM]
Cc1ccccc1-c1ccc2c(c1)O[C@@H](CN(C)C(=O)c1ccccn1)[C@H](C)CN([C@@H](C)CO)S2(=O)=O	11	-8[16.7 µM]
C[C@H]1CN([C@@H](C)CO)C(=O)c2cccc(NS(=O)(=O)c3cn(C)cn3)c2O[C@@H]1CN(C)C(=O)Nc1ccc(F)cc1	-10	12[16.7 µM]
COCC(=O)Nc1ccc2c(c1)C(=O)N(C)[C@H]1CC[C@@H](CC(=O)NCc3cccc(F)c3)O[C@@H]1CO2	-3	-10[16.7 µM]
CO[C@H]1CN(C)C(=O)c2ccc(NC(=O)Nc3ccccc3F)cc2OC[C@@H](C)NC[C@@H]1C	-3	-4[16.7 µM]
C[C@@H]1CCCCO[C@H](CN(C)C(=O)CCCN(C)C)[C@@H](C)CN([C@H](C)CO)C(=O)c2cc(NC(=O)c3ccncc3)ccc2O1	-3	-8[16.7 µM]
C[C@@H]1CN([C@H](C)CO)C(=O)c2cc(NC(=O)Cc3ccccc3)ccc2O[C@@H](C)CCCCO[C@H]1CN(C)C(=O)Nc1ccccc1	-4	-9[16.7 µM]
CCCNC(=O)N(C)C[C@H]1Oc2ncc(C#Cc3ccncc3)cc2C(=O)N([C@@H](C)CO)C[C@H]1C	-11	5[16.7 µM]
C[C@H](CO)N1C[C@H](C)[C@@H](CN(C)Cc2ccccn2)Oc2cc(-c3cncnc3)ccc2S1(=O)=O	1	-2[16.7 µM]
C[C@@H]1CN([C@H](C)CO)C(=O)c2cc(C#CCN(C)C)cnc2O[C@@H]1CN(C)Cc1ccccc1F	-3	-5[16.7 µM]
Cc1noc(C)c1NC(=O)N(C)C[C@@H]1Oc2c(NC(=O)C3CC3)cccc2C(=O)N([C@H](C)CO)C[C@H]1C	-11	1[16.7 µM]

In a second layout: results already given.
Values run as follows: Yeast UUG start	HIV Env fusion
- C[C@@H]1CN([C@@H](C)CO)C(=O)c2cc(N(C)C)ccc2O[C@H]1CN(C)C(=O)Nc1cccc2ccccc12
    -2	-10[16.7 µM]
- Cc1ccccc1-c1ccc2c(c1)O[C@@H](CN(C)C(=O)c1ccccn1)[C@H](C)CN([C@@H](C)CO)S2(=O)=O
    11	-8[16.7 µM]
- C[C@H]1CN([C@@H](C)CO)C(=O)c2cccc(NS(=O)(=O)c3cn(C)cn3)c2O[C@@H]1CN(C)C(=O)Nc1ccc(F)cc1
    -10	12[16.7 µM]
- COCC(=O)Nc1ccc2c(c1)C(=O)N(C)[C@H]1CC[C@@H](CC(=O)NCc3cccc(F)c3)O[C@@H]1CO2
    -3	-10[16.7 µM]
- CO[C@H]1CN(C)C(=O)c2ccc(NC(=O)Nc3ccccc3F)cc2OC[C@@H](C)NC[C@@H]1C
    -3	-4[16.7 µM]
- C[C@@H]1CCCCO[C@H](CN(C)C(=O)CCCN(C)C)[C@@H](C)CN([C@H](C)CO)C(=O)c2cc(NC(=O)c3ccncc3)ccc2O1
    -3	-8[16.7 µM]

(next part)
SMILES	Yeast UUG start	HIV Env fusion
CCNC(=O)C[C@@H]1CC[C@@H](NC(=O)C2CCOCC2)[C@@H](CO)O1	-10	-2[16.7 µM]
COc1ccc(NC(=O)Nc2ccc3c(c2)[C@@H]2C[C@@H](CC(=O)NCc4ccccc4F)O[C@H](CO)[C@@H]2O3)cc1	-2	-14[16.7 µM]
COc1ccccc1NC(=O)N[C@H]1CC[C@H](CCn2cc(-c3cccnc3)nn2)O[C@@H]1CO	-21	-2[16.7 µM]
COCC(=O)N(C)C[C@@H]1Oc2cc(C#CC(C)(C)O)ccc2S(=O)(=O)N([C@H](C)CO)C[C@@H]1C	2	0[16.7 µM]
CNC(=O)C[C@@H]1CC[C@@H]2[C@@H](COc3ccc(NS(=O)(=O)c4cccc(F)c4)cc3C(=O)N2C)O1	-5	-1[16.7 µM]
COCCNC(=O)C[C@H]1C=C[C@@H](NC(=O)NC2CCCC2)[C@@H](CO)O1	-18	-18[16.7 µM]
COCC(=O)N(C)C[C@H]1Oc2cc(C#CC(C)C)ccc2S(=O)(=O)N([C@@H](C)CO)C[C@@H]1C	-6	-3[16.7 µM]
COCC#Cc1ccc2c(c1)O[C@@H](CN(C)Cc1ccc3c(c1)OCO3)[C@@H](C)CN([C@@H](C)CO)S2(=O)=O	0	-4[16.7 µM]
C[C@@H]1CN([C@H](C)CO)C(=O)c2cc(-c3ccc(F)cc3)cnc2O[C@@H]1CN(C)C(=O)c1cccnc1	-10	11[16.7 µM]
COCC(=O)N1C[C@@H](C)[C@@H](OC)CN(C)C(=O)c2cc(NC(=O)c3ccc(OC)cc3)ccc2OC[C@@H]1C	4	17[16.7 µM]
O=C(NC1CCCC1)N[C@@H]1CC[C@@H](CC(=O)N2CCOCC2)O[C@H]1CO	-6	-3[16.7 µM]
C[C@@H]1CN([C@@H](C)CO)C(=O)Cc2cc(NC(=O)NC3CCCCC3)ccc2O[C@H]1CN(C)S(=O)(=O)c1cccs1	13	18[16.7 µM]
C[C@@H]1CCCCO[C@@H](CN(C)C(=O)c2ccccc2)[C@H](C)CN([C@@H](C)CO)C(=O)c2cc(NC(=O)Nc3cccc4ccccc34)ccc2O1	3	-21[16.7 µM]
C[C@H](CO)N1C[C@H](C)[C@@H](CN(C)C(=O)c2ccncc2)Oc2ncc(C#C[C@@H](C)O)cc2C1=O	32	-20[16.7 µM]
C[C@@H]1CCCCO[C@@H](CN(C)S(C)(=O)=O)[C@H](C)CN([C@@H](C)CO)C(=O)c2cc(NC(=O)c3ccccc3)ccc2O1	-7	-10[16.7 µM]
C[C@@H]1CN([C@@H](C)CO)C(=O)Cc2cc(NS(=O)(=O)c3ccc(F)cc3)ccc2O[C@@H]1CN(C)C	-8	21[16.7 µM]
O=C(N[C@@H]1CC[C@H](CC(=O)N2CCc3ccccc3C2)O[C@H]1CO)C1CCC1	-5	0[16.7 µM]
COc1cccc(NC(=O)N(C)C[C@H]2Oc3cc(C#Cc4ccncc4)ccc3S(=O)(=O)N([C@H](C)CO)C[C@@H]2C)c1	-4	1[16.7 µM]
CO[C@H]1O[C@H](CO)[C@@H](OC(=O)Nc2ccccc2)[C@H](OC(=O)Nc2ccccc2)[C@H]1OC(=O)Nc1ccccc1	9	11[16.7 µM]
C[C@@H]1CCCCO[C@@H](CN(C)CC2CCCCC2)[C@H](C)CN([C@@H](C)CO)C(=O)c2cc(NS(=O)(=O)c3cccs3)ccc2O1	3	-33[16.7 µM]
C/C=C/c1ccc2c(c1)O[C@@H](CN(C)Cc1cccc(F)c1)[C@@H](C)CN([C@@H](C)CO)S2(=O)=O	-7	18[16.7 µM]
CO[C@@H]1CN(C)C(=O)c2ccc(NC(=O)Nc3ccccc3F)cc2OC[C@H](C)N(C(C)=O)C[C@H]1C	7	13[16.7 µM]
CCC(=O)Nc1ccc2c(c1)OC[C@H](C)N(C(C)=O)C[C@H](C)[C@H](OC)CN(C)C2=O	-2	-1[16.7 µM]
CCCC(=O)Nc1ccc2c(c1)C(=O)N(C)[C@H]1CC[C@H](CC(=O)NCc3ccccc3F)O[C@@H]1CO2	13	10[16.7 µM]

A run of entries from further up:
SMILES	Yeast UUG start	HIV Env fusion
COc1cccc(-c2ccc3c(c2)O[C@@H](CN(C)Cc2ccncc2)[C@@H](C)CN([C@@H](C)CO)S3(=O)=O)c1	4	6[16.7 µM]
COc1ccc(NC(=O)N(C)C[C@H]2Oc3c(NC(=O)c4ccc(-c5nccs5)cc4)cccc3C(=O)N([C@H](C)CO)C[C@@H]2C)cc1	6	2[16.7 µM]

Some of the compounds tested; rates above refer to the full screens.
